From PubChem BioAssay
RN4220 kill: growth inhibition of S. aureus RN4220, primary screen, OD600 | AID 1259311, 2017 | actives 0.33% (n = 330,000) | inhibition, % (no concentration beside the values) | 16 h;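 active means z-score of -3 or lower and OD600 up to 0.18 on both plates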;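 further: plate controls were untreated cells for no effect and reference antibiotic for full effect; stock transfer was 100 nL into about 80 µL; one replicate is shown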
Bead autofluor: compound fluorescence in toxin protease inhibitor counterscreen | compound autofluorescence counterscreen, microsphere flow cytometry; active compounds read high | fluorescence intensity (concentration not given with the values) | actives 3.1% (n = 360,000) | AID 624483;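 active means at least 3 SD above the mean of all compounds, about 16000 in these data; inconclusive means too few beads counted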;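 further: 100 nL of 1 mM stock went into each well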
ugtP null kill: growth inhibition of ugtP-null S. aureus, primary screen, RN4220 ugtP deletion, OD600. 16 h; some inactives read as strong as hits. growth inhibition, % (no concentration beside the values). actives 0.54% (n = 330,000). AID 1259309, 2017;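 active means z-score under -3 and OD600 up to 0.15 on both plates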;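 further: plate controls were untreated wells for no effect and antibiotic for full effect; wells of about 80 µL received 100 nL stock; the first replicate is given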
BJeLR lethal: MLPCN primary cell-based screen for lethality selective to Ras in HRASV12 cells; actives 0.17% (n = 300,000); BJeLR (HRASV12) viability, CellTiter-Glo ATP luminescence, 48 h; reference of the scale not given here; inhibition, % (test concentration not listed); AID 1554, 2009;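 active means replicate mean above 50%; inconclusive means above 50% but judged a plate artefact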;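 further: 50 nL library stock added to about 25 µL; numbers are from one replicate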
PrP UTR inh: inhibition of PrP 5' UTR reporter expression; cell-based PrP 5' UTR mRNA reporter, plate reader; inhibition, % (concentration not given with the values); actives 0.35% (n = 340,000); AID 488862, 2010;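 active means every replicate at 50% or more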;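 further: 0 = median of the neutral control wells; tested in H4 reporter cells; numbers are from one replicate; inactives centre near -14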
Mtb hypoxia inh: PubChem AID 1159583 | M. tuberculosis hypoxia-regulated fluorescent reporter, fluorescence | actives 0.1% (n = 300,000) | fluorescence inhibition, % (concentration not given with the values);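 active means 35 to 45% if threefold the growth effect, above 45% if 1.5-fold the growth effect; inactive means the rest, general growth blockers included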;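 further: wells of about 50 µL received 100 nL stock; 0% = vehicle wells and 100% = reference inhibitor wells; whole bacteria with a GFP reporter of the hypoxia response; strong numbers were not always called active; many hits fall short of the cut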
Mtb hypoxia inh growth: recorded beside Mtb hypoxia inh, whose call it bears; growth inhibition, %; measured here: M. tuberculosis growth (absorbance);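 0% = vehicle and 100% = reference antibiotic; read after six days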
An asterisk follows results filed as active; ? = inconclusive; · = no result given. Compounds were not picked by outcome; any-hit rate near 4%.

SMILES | RN4220 kill | Bead autofluor | ugtP null kill | BJeLR lethal | PrP UTR inh | Mtb hypoxia inh | Mtb hypoxia inh growth
CNC(=O)N(C)c1nnc(C(C)(C)C)s1 | 2.5 | 9726 | 3 | 6 | -10 | 1 | 5
CN(C(=O)c1ccncc1)c1nnc(-c2ccccn2)s1 | 0.6 | 4657 | 3 | -5 | -29 | · | ·
Nc1nc(NC(=O)CCC(=O)O)nn1-c1ccccc1 | 2.5 | 4360 | 3 | 4 | -24 | 2 | 3
O=C(OCCc1ccccn1)c1cccc([N+](=O)[O-])c1 | 5.9 | 3771 | 11 | · | -6 | 7 | 2
CCc1ccccc1NC(=O)CSc1nnc(-c2ccco2)n1N | 4.0 | 7217 | 6 | 1 | -13 | 14 | 0
CCCCCC(=O)Nc1cccc(S(=O)(=O)NC2=NCCC2)c1 | 8.0 | 2931 | 7 | · | -15 | 12 | -2
Cc1ccc(S(C)(=O)=O)cc1S(=O)(=O)Nc1ccccc1 | 6.3 | 2726 | 2 | -2 | -3 | 0 | 7
CCc1ccc(N2CCN(C(=O)c3ccc(OC)c(OC)c3)CC2)cc1 | -0.1 | 6133 | 14 | 1 | -12 | · | ·
Cc1ccc(-c2nn(C)c(=O)c3ccccc23)cc1S(=O)(=O)NCCN(C)C | 0.1 | 3446 | 1 | -3 | -17 | -1 | 11
Cc1ccc(C(=O)c2oc3ccccc3c2NC(=O)c2cc(-c3ccccc3O)n[nH]2)cc1 | 2.9 | 2629 | -10 | -17 | -7 | 4 | 1
CN1CCc2c(c3c(n2C)CCN(C)C3c2ccc(F)cc2)C1c1ccc(F)cc1 (stereo not given) | 3.7 | 8152 | 1 | -2 | 5 | 11 | 11
O=C(NC(=S)Nc1ccccn1)c1cc(-c2ccccc2)nc2ccccc12 | -3.3 | 7942 | -24 | -5 | -20 | 3 | 7
O=S(=O)(Nc1ncn[nH]1)c1ccc2ccccc2c1 | 2.4 | 3903 | -4 | 1 | -17 | · | ·
CCOC(=O)Cn1c(=NC(=O)CSC(C)=O)sc2cc(OC)ccc21 | -3.7 | 2266 | 2 | -1 | -11 | · | ·
CCOC(=O)N1CCN(C(=O)c2ccc3c(=O)n(-c4ccccc4F)c(=S)[nH]c3c2)CC1 | -0.2 | 4256 | -11 | -3 | -7 | -10 | 2
CCOC(=O)c1c(NC(=O)CN2CCN(c3ccc(Cl)cc3)CC2)sc(C)c1C | 3.7 | 5259 | 4 | 0 | -20 | 7 | 9
Cc1cc(C)c(NC2=NCC(=O)N2C2CCCCC2)c(C)c1 | -2.9 | 3828 | -1 | 0 | -2 | · | ·
CC(C)(C)NS(=O)(=O)c1cccc2nsnc12 | 0.2 | · | 3 | 24 | · | 11 | -3
O=C1NC(=O)C(Nc2cccc3ccccc23)S1 (stereo not given) | -6.2 | 2758 | -9 | 1 | -8 | 22 | -13
O=C(CSCc1ccccc1F)NCc1ccc(F)cc1 | 5.9 | 4015 | 0 | 4 | -22 | 10 | 11
O=C(NCCCN1CCN(c2ccccc2)CC1)Nc1ccccc1C(F)(F)F | 0.2 | 4736 | -3 | 1 | -30 | · | ·
NC1=NC(=O)C(Cc2ccc(Br)cc2)S1 (stereo not given) | 5.9 | 5569 | 4 | 4 | -3 | 8 | 7
CC(=O)c1cccc(NC(=O)c2ccc(C)o2)c1 | -0.6 | 4091 | 3 | 3 | -36 | -8 | -8
COc1ccc(Cl)cc1NC(=O)COC(=O)C=Cc1c(C)nn(C2CCS(=O)(=O)C2)c1Cl (stereo not given) | 5.0 | · | -1 | · | · | 8 | 13
CCc1cc2c(=O)c(-c3nc(C)cs3)coc2cc1OC(C)C(=O)NCCO (stereo not given) | 5.5 | 2125 | 7 | -12 | -23 | 7 | 4
C#CCOCCOCCOCCNc1nc(N2CCN(C(=O)C([C@@H](C)O)n3cc([C@@H](N)CCCCN)nn3)CC2)nc(N2CCN(C(=O)[C@H](CCCCN)n3cc([C@@H](N)[C@H](C)CC)nn3)CC2)n1 (stereo not given in full) | 3.3 | 4004 | -3 | · | -6 | -3 | 3
CN1c2ccc([N+](=O)[O-])cc2CC2(C(=O)NC(=O)N(c3ccc(Br)cc3)C2=O)C1c1ccccc1 (stereo not given) | 0.2 | 2120 | -4 | -25 | -32 | 5 | 6
Cc1ccc(S(=O)(=O)/C(C#N)=C/c2c(N3CC(C)OC(C)C3)nc3c(C)cccn3c2=O)cc1 (stereo not given) | 6.4 | ? | 9 | -3 | 0 | 11 | 7
CC(=O)c1ccc(NC(=O)CSc2nc(=O)cc(N)n2-c2ccccc2)cc1 | 0.9 | 4321 | 1 | 10 | -65 | -9 | 6
Cc1ccc(NC(=O)C2C3C=CC(O3)C2C(=O)O)cc1C (stereo not given) | · | 4067 | · | -3 | -15 | · | ·
CCC(=O)N1CC2(CC(c3cccc(NC(=O)COc4ccc(Cl)cc4)c3)=NO2)CC1C(N)=O (stereo not given) | 3.8 | · | -1 | · | · | 3 | 0
CS(=O)(=O)N(CC(=O)Nc1ccccc1C(=O)N1CCCC1)c1ccccc1Br | 1.8 | 3868 | 4 | -2 | -7 | 0 | 6
N#CCCN(C(=O)CSc1nnc(-c2ccncc2)n1C1CC1)c1ccccc1 | 0.1 | 3378 | 4 | · | -15 | -2 | -3
Cc1cc(NC(=O)c2ccccc2O)nc(C)n1 | 4.3 | 4419 | -7 | -3 | -15 | 1 | 11
COc1ccc(N2CCN(C(=O)CCc3nnc4ccc(N5CCOCC5)nn34)CC2)cc1 | 5.9 | 4590 | 14 | 3 | 7 | 6 | -5
Cc1csc(Nc2ccccc2)[n+]1-c1ccccc1 | -1.6 | 3473 | 4 | 6 | -9 | 1 | -1
Cc1ccc(/C=C/C(=O)O)cc1S(=O)(=O)NC1CCS(=O)(=O)C1 (stereo not given) | 5.0 | 3636 | 3 | -6 | -12 | 1 | 1
O=C(Cn1cnc2c(oc3ccccc32)c1=O)N1CCCC1 | 1.5 | 4409 | 1 | 13 | -21 | 3 | 8
Cc1ccc(Cl)cc1NC(=O)CCNC(=O)N1CC(=O)Nc2ccccc21 | -0.5 | 5344 | 9 | -3 | -26 | 10 | 8
COc1cccc(N2CC(C(=O)Nc3nnc(SCC(=O)NCc4ccco4)s3)CC2=O)c1 (stereo not given) | -6.5 | 4076 | -8 | 11 | -9 | -4 | 0

In another format: results already given
smiles	RN4220 kill	Bead autofluor	ugtP null kill	BJeLR lethal	PrP UTR inh	Mtb hypoxia inh	Mtb hypoxia inh growth
COc1ccc(N2CCN(C(=O)CCc3nnc4ccc(N5CCOCC5)nn34)CC2)cc1	5.9	4590	14	3	7	6	-5
Cc1csc(Nc2ccccc2)[n+]1-c1ccccc1	-1.6	3473	4	6	-9	1	-1
Cc1ccc(/C=C/C(=O)O)cc1S(=O)(=O)NC1CCS(=O)(=O)C1 (stereo not given)	5.0	3636	3	-6	-12	1	1
O=C(Cn1cnc2c(oc3ccccc32)c1=O)N1CCCC1	1.5	4409	1	13	-21	3	8
Cc1ccc(Cl)cc1NC(=O)CCNC(=O)N1CC(=O)Nc2ccccc21	-0.5	5344	9	-3	-26	10	8

Back to the main list with the 6 entries that preceded the break.
SMILES | RN4220 kill | Bead autofluor | ugtP null kill | BJeLR lethal | PrP UTR inh | Mtb hypoxia inh | Mtb hypoxia inh growth
COc1ccc(N2CCN(C(=O)CCc3nnc4ccc(N5CCOCC5)nn34)CC2)cc1 | 5.9 | 4590 | 14 | 3 | 7 | 6 | -5
Cc1csc(Nc2ccccc2)[n+]1-c1ccccc1 | -1.6 | 3473 | 4 | 6 | -9 | 1 | -1
Cc1ccc(/C=C/C(=O)O)cc1S(=O)(=O)NC1CCS(=O)(=O)C1 (stereo not given) | 5.0 | 3636 | 3 | -6 | -12 | 1 | 1
O=C(Cn1cnc2c(oc3ccccc32)c1=O)N1CCCC1 | 1.5 | 4409 | 1 | 13 | -21 | 3 | 8
Cc1ccc(Cl)cc1NC(=O)CCNC(=O)N1CC(=O)Nc2ccccc21 | -0.5 | 5344 | 9 | -3 | -26 | 10 | 8
COc1cccc(N2CC(C(=O)Nc3nnc(SCC(=O)NCc4ccco4)s3)CC2=O)c1 (stereo not given) | -6.5 | 4076 | -8 | 11 | -9 | -4 | 0
COCCn1c(CN2CCN(C(c3ccccc3)c3ccccc3)CC2)nc2c1c(=O)n(C)c(=O)n2C | 2.6 | 3541 | 6 | 15 | -30 | -2 | 9
Cc1cc(NC(=O)CSc2nnnn2-c2ccc(F)cc2)no1 | 1.2 | 3708 | -3 | -13 | -3 | -5 | -10
Cc1nc2ccccc2c(=O)n1NC(=O)/C=C/c1ccccc1 | · | 2614 | · | 4 | -13 | · | ·
O=C(NCc1ccncc1)NC12CC3CC(CC(C3)C1)C2 | 9.0 | 3429 | 5 | 8 | -1 | 1 | 1
Fc1ccc(CNc2cnccn2)cc1 | 1.7 | 7923 | 6 | 4 | -19 | 6 | 0
CCOc1cc(N2CCOCC2)c(OCC)cc1NC(=O)CSc1ncccn1 | 4.3 | 4028 | 3 | 1 | -23 | 9 | -8
COc1ccccc1N1CCN(C(=O)Cc2ccc(Cl)cc2)CC1 | 0.6 | 3950 | 3 | -8 | -16 | -6 | 5
O=C(CSc1nc2ccccc2c(=O)n1CCCN1CCOCC1)N1CCN(c2ccccc2)CC1 | 11 | 3465 | 3 | -4 | -68 | -7 | 5
CNC(=O)c1sccc1SCc1ccc(Cl)cc1Cl | 12 | 3198 | 3 | 15 | -4 | 9 | 9
O=C(/C=C/c1ccco1)NC(=S)Nc1ccc(O)c(-c2nc3ccccc3s2)c1 | · | 2633 | · | 6 | -22 | · | ·
Cc1ccc2oc3c(c(=O)c2c1)C(c1cccc(Br)c1)N(Cc1ccco1)C3=O (stereo not given) | 3.0 | 18391* | -5 | · | 4 | 2 | 1
CC(=O)NCc1ccc(-c2nc3ccccc3s2)cc1 | 0.8 | 4325 | 3 | 5 | -62 | -3 | 1
Cc1occc1C(=O)NCc1ccc(C(=O)O)o1 | 1.0 | 10654 | 0 | -4 | -34 | -1 | 4
O=C(CCc1ccccc1)NNC(=O)COc1ccccc1 | 6.0 | 24872* | 6 | -1 | -9 | 15 | 8
O=C1CC(C(=O)Nc2cccc(F)c2)n2ncnc2N1 (stereo not given) | 4.6 | 2474 | 6 | 4 | -10 | 10 | 0
CNC(C)C(=O)NC(C(=O)N1CCCC1C(=O)NC1CCCc2ccccc21)C(C)C (stereo not given) | 3.8 | 3944 | 2 | · | -38 | 5 | 3
Cc1ccc(C(=O)COC(=O)C2CC3CCCC(C2)C3=O)cc1[N+](=O)[O-] (stereo not given) | · | ? | · | -13 | -16 | · | ·
CCOCCCN(C(=O)Cn1nnc(-c2ccc(C)o2)n1)C(C(=O)NC1CCCC1)c1ccco1 (stereo not given) | -1.5 | 6105 | -4 | 0 | -13 | 7 | 2
CCCN1CCC(=O)N(CCSc2ccccc2)CC1 | 2.5 | 4431 | 0 | -4 | -88 | 2 | -7
CN(C(=O)COC(=O)c1ccccc1SCC(=O)NC1CCCCCCC1)C1CCS(=O)(=O)C1 (stereo not given) | 3.3 | 2458 | -2 | 8 | -9 | 16 | 7

Some values from the list.
Mtb hypoxia inh with COCCn1c(CN2CCN(C(c3ccccc3)c3ccccc3)CC2)nc2c1c(=O)n(C)c(=O)n2C is entered as -2
Mtb hypoxia inh growth with CCOCCCN(C(=O)Cn1nnc(-c2ccc(C)o2)n1)C(C(=O)NC1CCCC1)c1ccco1 (stereo not given) is entered as 2

Further structures:
SMILES | RN4220 kill | Bead autofluor | ugtP null kill | BJeLR lethal | PrP UTR inh | Mtb hypoxia inh | Mtb hypoxia inh growth
Cc1cc(=O)oc2c1c(C(F)(F)F)nn2-c1ccccc1 | 2.8 | · | -4 | -22 | -21 | -1 | 10
CC(=O)N1CCCc2cc(S(=O)(=O)NC(C(=O)NC(C)c3ccccc3)C(C)C)ccc21 (stereo not given) | 0.6 | 16474* | 6 | 8 | -4 | 10 | 0
COc1cc(C=NNC(=O)Cc2ccc(Br)cc2)cc(OC)c1O | -1.4 | · | 2 | · | · | -3 | 8
CCCN1CNc2c(c(=O)[nH]c(=S)n2-c2ccc(Cl)cc2)C1 | 2.9 | 3961 | 6 | · | -24 | 6 | -1
COc1ccccc1NC(=O)CSc1nc2n[nH]c(C)c2c(=N)n1-c1ccccc1Cl | -1.9 | 22575* | -26 | 0 | -16 | -3 | -1
